Resorufin autofl = compounds fluorescent in resorufin spectral region; max dye-equivalent concentration, M; actives 0.04% (n = 59,000); Compound fluorescence, resorufin region 547/598 nm, buffer; stronger effect = higher value; active = above 10 nM dye equivalent; inconclusive = 1 to 10 nM; inactive = 1 nM or less; a few of its hits are not listed in these tables; also: highest value over a series up to 38 µM
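Compounds in 100 mM Tris buffer, pH 8.0, incubated 15 min at room temperature, then read with 547 nm excitation and 598 nm emission filters. Fluorescence was converted to dye-equivalent concentration using an on-plate six-point resorufin standard curve.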
AID923 = qHTS Assay for Allosteric/Competitive Inhibitors of Caspase-1: Spectroscopic Profiling in AFC Spectral Region; Potency, µM (highest dose often 57.5 µM), without a hit: at the highest dose fluorescence increase, most hits filed as activators; compound fluorescence, AFC spectral region (405/520 nm); almost no hit is shown here; actives 1.1% (n = 75,000); AID 923, 2007; active = well fitted activation curve with a large enough effect; inconclusive = small, poorly fitted or top-dose-only effect;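 also: potency is read from the fitted curve at half-maximal effect; 0% is about no effect; scaled to a free AFC standard on each plate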
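Baseline compound fluorescence (AFC region, 405 nm ex/520 nm em) taken from the intercept of kinetic reads with 50 nM caspase-1 and 5 uM Ac-WEHD-AFC; normalized to an on-plate AFC standard curve; compounds titrated up to 57 uM.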
A488 autofl = compound fluoresces in the A488 spectral region; actives 0.1% (n = 59,000); AID 591; compound autofluorescence, A488 spectral region, dye equivalency; stronger effect = higher value; max dye equivalency, M; active = above 10 nM dye equivalent; inconclusive = 1 to 10 nM; inactive = 1 nM or less; about half of its hits are not listed in these tables;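 also: highest value over a series up to 38 µM; compound alone in buffer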
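Read-out: relative fluorescence at 480/540 nm, expressed as Alexa 488 dye-equivalent concentration from a six-point A488 standard included per plate. Conditions: 100 mM Tris, pH 8.0; 15 min incubation, room temperature.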
A647 autofl = A647 region autofluorescence; 59,000 tested, under 10 active; max dye-equivalent concentration, M; AID 592; Compound fluorescence, A647 channel (570/671 nm), Tris buffer; active means above 1 µM dye equivalent; inconclusive means 0.1 to 1 µM; inactive means 0.1 µM or less;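 also: values scaled relative to a standard on each plate; highest value over a series up to 38 µM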
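Fluorescence read (570 nm ex, 671 nm em) after 15 min RT incubation of compounds in 100 mM Tris buffer, pH 8.0; values expressed as dye-equivalent concentration against a six-point A647 standard series on each plate.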
TSHR ag = agonists of human thyroid stimulating hormone receptor. Potency, µM (doses to about 57.1 µM), for inactives: at the top dose activation, actives largely listed as activators. HEK293-CNG-TSHR cells (CNG channel as cAMP sensor), membrane potential dye, cAMP. AID 926. P16473. actives 0.48% (n = 73,000); active = well fitted activation curve of enough size with the parental cells flat; inconclusive = any curve in the parental cells; inactive = parental cells flat and receptor cells flat or falling; also: potency is read from the fitted curve at half-maximal effect; % of control where 0% means no effect; weak receptor curves with flat parental cells got no call and are not listed
Target sequence (P16473 whole entry, looked up): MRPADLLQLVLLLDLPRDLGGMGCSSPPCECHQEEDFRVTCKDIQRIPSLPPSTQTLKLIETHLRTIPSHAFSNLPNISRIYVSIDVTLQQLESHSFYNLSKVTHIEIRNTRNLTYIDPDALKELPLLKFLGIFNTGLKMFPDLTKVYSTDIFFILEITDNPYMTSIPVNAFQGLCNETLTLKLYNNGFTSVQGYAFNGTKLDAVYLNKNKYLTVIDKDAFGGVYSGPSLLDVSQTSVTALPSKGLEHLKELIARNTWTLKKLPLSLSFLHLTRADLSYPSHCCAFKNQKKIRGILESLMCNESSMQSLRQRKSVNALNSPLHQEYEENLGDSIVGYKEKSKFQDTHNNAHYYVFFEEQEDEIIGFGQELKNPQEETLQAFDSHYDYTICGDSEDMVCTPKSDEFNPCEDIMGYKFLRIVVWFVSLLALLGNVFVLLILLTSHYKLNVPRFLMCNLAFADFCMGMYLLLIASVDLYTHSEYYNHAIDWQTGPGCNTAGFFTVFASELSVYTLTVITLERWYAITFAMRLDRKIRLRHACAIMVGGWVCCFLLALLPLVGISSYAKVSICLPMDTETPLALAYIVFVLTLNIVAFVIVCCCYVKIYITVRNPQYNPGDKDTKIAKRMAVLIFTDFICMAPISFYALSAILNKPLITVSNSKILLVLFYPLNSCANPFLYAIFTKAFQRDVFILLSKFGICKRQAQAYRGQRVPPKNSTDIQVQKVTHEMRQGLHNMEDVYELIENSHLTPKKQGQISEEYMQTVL
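cAMP rise detected as CNG-channel membrane depolarization by fluorescent dye (emission 590 nm), 30 min after compound, following 60 min dye loading containing 100 uM RO 20-1724 at room temperature. Cells: TSHR/CNG HEK 293, with parental CNG HEK 293 as control.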
* hit, by the source's call; i = inactive; u = inconclusive; x = no result given; & = joins results of further samples; [ ] = another dose, or the depositor's remark. Only part of the results is shown; rates above refer to the full screens.

SMILES	Resorufin autofl	AID923	A488 autofl	A647 autofl	TSHR ag
COC(=O)c1cc2ccsc2n1CC(=O)Nc1cc(Cl)ccc1OC	i	-2.1%	i	9.2e-09	u
C#CCn1cnc2c(cnn2-c2ccc(C)c(C)c2)c1=O	i	0.4%	i	1e-09	11%
CCOCCOC(=O)C1=C(C)N(C)C(=O)NC1c1cc(Cl)c(O)c(OCC)c1 (stereo not given)	i	-3.5%	i	2.2e-08	9%
O=C(Nc1ccccc1)N1CCn2c(nc3ccccc32)C1	i	3.5%	i	1.3e-08	-3%
Nc1nc(-c2ccc3c(c2)OCCO3)cs1	i	-2.4%	i	1e-09	-10%
Cn1nnnc1SCC(=O)Nc1ccc(Oc2ccccc2)cc1	i	1.3%	i	1e-09	0%
COc1cccc(-c2ccc3ncnc(N4CCOCC4)c3c2)c1	i	0.0%	i	1e-09	x
[N-]=[N+]=Nc1ccc(C(=O)CSC[C@@H](NC(=O)CC[C@@H](N)C(=O)O)C(=O)NCC(=O)O)cc1	i	-2.7%	i	1.3e-09	-13%
COc1ccc(CCNc2oc(-c3ccc(OC)c(OC)c3)nc2C#N)cc1	i	0.0%	i	6.3e-09	-8%
CN(C)c1ccc(-c2cncnc2-n2ccnc2)cc1	i	0.7%	i	3.4e-08	1%
Cc1csc(NC(=O)c2cccc(Cn3nc(C)c(Br)c3C)c2)n1	i	-0.4%	i	1e-09	4%
Cc1ccc(C(=O)N2CCN(C3CCCCC3)CC2)s1	x	-1.6%	x	x	6%
O=C(Cl)c1c(Cl)cccc1Cl	x	1.7%	x	x	-1%
O=C(CN1C(=O)C2CCCCN2C(=O)c2ccccc21)N1CCCc2ccccc21 (stereo not given)	i	-1.1%	i	2.6e-09	2%
c1ccc(N=P(N2CCOCC2)(N2CCOCC2)N2CCOCC2)cc1	i	0.3%	i	1e-09	2%
Cc1cccc(NC(=O)c2cc3c(n(-c4ccccc4)c2=O)CCCC3=O)n1	i	-0.5%	i	4.2e-08	3%
Cn1c(=O)c2c(nc(CN3CCN(c4ccccc4)CC3)n2CCN2CCOCC2)n(C)c1=O	i	0.1%	i	1.4e-09	7%
COC(=O)CSc1nnc(CNC(=O)c2cccc(C)c2)n1-c1ccccc1OC	i	-0.1%	i	4.7e-09	1%
C=CCn1c(SCC(=O)c2cc(C)n(CC3CCCO3)c2C)nnc1-c1ccccc1 (stereo not given)	i	-1.6%	i	6.6e-09	u
O=C1c2ccccc2C(Cc2ccncc2)(Cc2ccncc2)c2ccccc21	x	-0.9%	x	x	u
O=c1[nH]c(-c2cccs2)nc2ccccc12	i	-0.8%	i	3.9e-08	3%
CN1CCN(CCC(=O)N2c3ccccc3Sc3ccc(Cl)cc32)CC1	i	x	i	1e-09	x
CCCCOC(=O)c1ccc(NC(=O)C(CCS(C)(=O)=O)NC(C)=O)cc1 (stereo not given)	i	-0.2%	i	4e-08	-3%[11.4 µM]
CCN(CC)S(=O)(=O)c1cccc(-c2nnc(C(=O)c3ccc(C(F)(F)F)cc3)o2)c1	i	-0.1%	i	1.5e-08	-9%
O=C(Nc1nccs1)C12CC3CC(C1)CC(C(=O)Nc1nccs1)(C3)C2	x	-1.6%	x	x	-9%
COc1ccccc1NC(=O)Cn1cnc2c1c(=O)n(C)c(=O)n2C	x	-0.6%	x	x	4%
Cc1nc(SCc2ccccc2C)n[nH]1	i	-0.9%	i	2.6e-09	7%
COC(=O)NCC(c1cccnc1)N1CCN(c2ccccc2OC)CC1 (stereo not given)	i	-0.4%	i	3.9e-08	11%
COc1ccc(Cl)cc1S(=O)(=O)n1nnc2ccccc21	i	-0.5%	i	1.1e-08	-1%
COCCNC(=O)CCCn1c(=O)c2ccccc2n(CC(=O)NCCC2=CCCCC2)c1=O	i	-0.2%	i	1e-09	0%
O=C(c1ccco1)N(Cc1nc2ccccc2c(=O)[nH]1)C1CCCC1	i	-0.8%	i	4.1e-08	2%
O=c1c2ccccc2nc2n1CCC2	i	-0.1%	i	1.1e-09	3%
Cc1nc(-c2cccc(S(=O)(=O)N3CCOCC3)c2)cs1	i	8.6%	i	3.7e-09	0%
Cc1ccccc1CN(c1ccc(C(N)=O)cc1)S(C)(=O)=O	i	-0.2%	i	4.2e-08	13%
Cc1nc2c(C(=O)NCc3ccco3)cnn2c(C)c1Cc1ccc(F)cc1Cl	i	-0.1%	i	1e-09	u
Cc1ccc(-c2nnc(-c3cccc(Br)c3)o2)cc1	i	x	i	1e-09	x
CCOC(=O)c1cnn2c(C)cc(-c3ccc(F)cc3)nc12	x	-1.1%	x	x	10%
O=C(NCCCN1CCN(CCCNC(=O)c2ccc3c(c2)OCO3)CC1)c1ccc2c(c1)OCO2	i	-1.1%	i	2.9e-08	9%
O/N=C(\c1ccc2c(c1)OCCO2)C1CCCCC1	i	x	i	1e-09	x
Cc1nn(Cc2ccc(C(=O)Nc3nccs3)cc2)c(C)c1Cl	i	-0.4%	i	1e-09	5%
O=c1n(CCCN2CCN(c3cccc(Cl)c3)CC2)nc2ccccn12	i	0.1%	i	2.7e-09&1e-09&3.4e-08	-10%[25.6 µM]
Cn1c(CN2CCCCC2)nc2cc(NC(=O)c3cccs3)ccc21	i	-1.4%	i	1e-09	12%
CC(C)n1c(SCC(=O)NCc2ccco2)nc2c1c(=O)n(C)c(=O)n2C	i	1.0%	i	3.6e-08	-4%
Cc1noc(C)c1C(=O)OCC(=O)NCCC1=CCCCC1	i	-0.8%	i	4.5e-09	8%
O=C(CSc1nnc(COc2cccc3cccnc23)o1)N1CCc2ccccc21	i	0.1%	i	2.6e-08	u
CCCc1cc(C(=O)NCc2ccccc2)no1	x	2.2%	x	x	3%
Cn1c(=S)n(/N=C/c2ccc3c(c2)OCO3)c2ccccc21	i	-0.6%	i	1.9e-09	u
O=C1Nc2cc(C(=O)N3CCOCC3)ccc2SC1N1CCOCC1 (stereo not given)	i	-0.4%	i	4.4e-08	-1%
CC(=O)Nc1ccc(C(=O)c2ccccc2)cc1	x	2.0%	x	x	-4%
CNC(=O)CCn1nc(-c2ccccc2)c2ccccc2c1=O	i	x	i	3.6e-08	x

(next part)
SMILES	Resorufin autofl	AID923	A488 autofl	A647 autofl	TSHR ag
C=CC(O)(C#CCN(CC)CC)c1ccccc1 (stereo not given)	i	-0.1%	i	1e-09	20%
Cc1c(Cc2ccccc2)sc(N)c1C(N)=O	x	2.7%	x	x	18%
Cc1c(Cl)cccc1NC(=O)Cn1cccc1	i	1.4%	i	2.5e-08	1%[11.4 µM]
O=C(CCCN1C(=O)c2cccnc2C1=O)N1CC(=O)N(CCc2ccccc2)C(=O)C1	i	0.0%	i	2.2e-09	-1%
COc1ccc(C2C(C#N)=C(N)Oc3cc4c(cc32)OCO4)cc1 (stereo not given)	i	14%	i	5.2e-09	23%
Cn1c(=O)c(C(=O)Nc2cccnc2)c(O)c2ccccc21	i	-0.2%	i	2.7e-09	5%
Cn1c(/N=C/c2c[nH]c3ccccc23)nc2ccccc21	i	0.5%	i	6.6e-09	20%
O=C(NC1CCCCC1)N1CCN(CCc2ccccc2)CC1	i	0.2%	i	4.6e-09	-5%
N#CCCN1CCN(C(=S)c2ccc(-c3ccc(Cl)c(Cl)c3)o2)CC1	i	-0.3%	i	3.5e-09	-9%
CCn1cc(C(=O)NCc2ccc3c(c2)OCO3)c(=O)c2ccc(C)nc21	i	-1.2%	i	3.9e-08	2%
O=C1C=C[C@@H](O)[C@H]2[C@@H]3C(=O)N(c4cccc(Oc5ccccc5)c4)C(=O)[C@@H]3CC[C@H]12	x	-0.7%[11.5 µM]	x	x	-3%[11.4 µM]
c1ccc2c(c1)CCCN2c1nc2ccccc2n2cnnc12	x	5.4%	x	x	16%
O=C(NC1CCCCC1)C(c1ccco1)N(C(=O)c1csnn1)C1CCCC1 (stereo not given)	i	0.5%	i	3.4e-09	u
CC(C)COC(=O)C(C#N)c1nc2ccccc2nc1N1CCN(Cc2ccccc2)CC1 (stereo not given)	i	4.8%	i	9.3e-09	5%
CCCC1(C(=O)OC)NC(c2ccc(OC)c(OC)c2)C2C(=O)N(c3ccc4c(c3)OCO4)C(=O)C21 (stereo not given)	i	0.9%	i	5e-08	12%
CC(NC(=O)C1CCC(=O)N1Cc1ccc(F)cc1)c1ccc2c(c1)OCCO2 (stereo not given)	x	0.7%	x	x	6%
O=C(NCc1ccccn1)Nc1cccc(NC(=O)NCc2ccccn2)c1	i	-1.4%	i	2.4e-08	-3%
O=C(O)CCc1nc(-c2ccccc2Cl)no1	i	1.2%	i	3.8e-08	8%
COc1nc(OC)nc(N2CCC(C(=O)NCc3ccco3)CC2)n1	i	-1.0%	i	1e-09	1%
Cc1ccc(-c2nc3cc(NC(=O)C(C)C)ccc3o2)cc1	x	2.0%	x	x	u
CO[C@H]1COC(=O)C/C=C\[C@@H](C)COC(=O)[C@H]2CCCN2C(=O)C/C=C\[C@H]1C	x	-0.3%[11.5 µM]	x	x	-7%[11.4 µM]
COc1ccc(OC)c(-n2nnnc2SCC(=O)Nc2nc(C)c(C)s2)c1	i	-0.9%	i	3.6e-09	10%
Cc1cccc(N2CSC3=C(C#N)C(c4ccc(C)o4)CC(=O)N3C2)c1 (stereo not given)	i	1.0%	i	1e-09	2%
CCCCCc1c(C)nc(N2CCc3ccccc3C2)[nH]c1=O	i	-2.0%	i	1.2e-08	3%
O=C(Cn1nnc(-c2ccccc2)n1)OC1CCOC1=O (stereo not given)	i	-0.8%	i	1e-09	-3%
CN(C(=O)COC(=O)COc1ccccc1F)C1CCS(=O)(=O)C1 (stereo not given)	i	0.1%	i	1e-09	-1%
CCOC(=O)c1c(C)c(C(=O)O)n(C)c1C	x	-0.9%	x	x	4%[11.4 µM]
COc1ccc(CNC(=O)C2CC(c3ccc(OC)cc3)=NO2)cc1 (stereo not given)	i	-0.7%	i	1e-09	5%
Cn1c(CNc2ccccc2)nc2ccccc21	x	0.1%	x	x	5%
Cc1noc(C(=O)Nc2c(C)nn(Cc3ccccc3)c2C)c1Cl	x	4.0%	x	x	5%

4 compounds drawn at random from the list so far:
SMILES	Resorufin autofl	AID923	A488 autofl	A647 autofl	TSHR ag
CCCCCc1c(C)nc(N2CCc3ccccc3C2)[nH]c1=O	i	-2.0%	i	1.2e-08	3%
Cn1c(CNc2ccccc2)nc2ccccc21	x	0.1%	x	x	5%
Cc1cccc(N2CSC3=C(C#N)C(c4ccc(C)o4)CC(=O)N3C2)c1 (stereo not given)	i	1.0%	i	1e-09	2%
COc1ccc(OC)c(-n2nnnc2SCC(=O)Nc2nc(C)c(C)s2)c1	i	-0.9%	i	3.6e-09	10%

More entries
SMILES	Resorufin autofl	AID923	A488 autofl	A647 autofl	TSHR ag
CN(C)c1ccc(-c2ccc3ncnc(-n4ccnc4)c3c2)cc1	i	12%	i	2.5e-08	-4%
Cc1ccc(C(=O)CSc2nnc(-c3cccnc3)n2N)cc1	i	0.9%	i	2.4e-09	2%
COC(=O)c1ccccc1S(=O)(=O)N(Cc1cc2cc3c(cc2[nH]c1=O)OCO3)C1CCCCC1	i	2.7%	i	3.1e-08	9%
O=C(N[C@@H](CO)[C@@H](O)c1ccc([N+](=O)[O-])cc1)C(Cl)Cl	i	0.2%[25.7 µM]	i	3.4e-09	u
CC(=O)Nc1cccc(N(C)S(C)(=O)=O)c1	i	0.5%	i	1e-09	1%
O=S(=O)(NCc1cccnc1)c1cccc2cccnc12	x	1.2%	x	x	0%
Nc1nc(SCC(=O)NCCCO)nc2sc3c(c12)CCC3	x	1.5%	x	x	7%
O=C(Cn1nc(Cc2cccnc2)c2ccccc2c1=O)N1CCN(c2ccccn2)CC1	x	-1.1%	x	x	-11%
COc1ccc2nc3c(c(-c4ccccc4)c2c1)CCC3	x	-0.6%	x	x	u
